# Bioassay records as filed in PubChem BioAssay.
# KCNQ2 inh: KCNQ2 potassium channel inhibitors, primary screen, cell-based, CHO-K1, FluxOR thallium flux, B-score (AID 2156). 310,000 tested, 1.1% active. B-score at 10 µM. O88943. 20 min; active compounds read low; only compounds with negative scores are shown here; some inactives read as strong as hits;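 active = fluorescence ratio B-score at most minus 3 library SDs, with starting brightness B-score within 2 library SDs, cut at about -5.5 in these data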
# Target sequence (O88943 whole entry, looked up): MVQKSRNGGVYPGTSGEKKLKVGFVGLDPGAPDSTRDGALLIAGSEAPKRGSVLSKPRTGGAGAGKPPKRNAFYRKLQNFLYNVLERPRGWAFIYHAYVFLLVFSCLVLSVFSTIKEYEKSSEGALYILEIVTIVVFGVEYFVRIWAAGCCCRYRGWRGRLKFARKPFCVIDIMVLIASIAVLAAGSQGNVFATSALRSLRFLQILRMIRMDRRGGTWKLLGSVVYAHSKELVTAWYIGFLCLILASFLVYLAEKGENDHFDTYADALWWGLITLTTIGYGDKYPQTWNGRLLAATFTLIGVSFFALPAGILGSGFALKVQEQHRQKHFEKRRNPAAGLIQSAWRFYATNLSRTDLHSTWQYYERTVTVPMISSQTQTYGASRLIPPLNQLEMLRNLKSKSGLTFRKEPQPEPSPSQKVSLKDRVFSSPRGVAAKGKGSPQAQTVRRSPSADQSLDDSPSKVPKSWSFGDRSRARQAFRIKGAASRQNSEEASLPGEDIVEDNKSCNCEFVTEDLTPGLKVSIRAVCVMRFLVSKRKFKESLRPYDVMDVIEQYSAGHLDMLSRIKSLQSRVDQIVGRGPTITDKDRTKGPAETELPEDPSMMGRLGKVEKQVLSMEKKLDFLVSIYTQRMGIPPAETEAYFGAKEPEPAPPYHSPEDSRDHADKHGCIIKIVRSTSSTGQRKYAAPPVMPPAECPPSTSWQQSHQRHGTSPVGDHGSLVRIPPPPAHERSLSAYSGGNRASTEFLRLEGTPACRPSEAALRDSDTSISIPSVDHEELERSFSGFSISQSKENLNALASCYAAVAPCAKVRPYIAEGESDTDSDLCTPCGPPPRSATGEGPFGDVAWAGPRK
# KCNQ2 inh baseline: further read-out of KCNQ2 inh, marked with its call; B-score; measured here: initial fluorescence intensity artifact check;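 brightness before thallium and not channel activity; 0 = typical well and far values either way flag optical interference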
# * hit, by the source's call; i = inactive. Only part of the results is shown, so the mix of outcomes need not match the whole.
# Under each structure – KCNQ2 inh, KCNQ2 inh baseline
Nc1nc(Cl)cc(N2CCC(c3cc(-c4ccc(Cl)cc4Cl)n[nH]3)CC2)n1
→ i, 0.06
CNC(=O)NC(=O)CSc1nnc(-c2ccco2)n1Cc1ccccc1
→ i, -0.02
COc1ccc(-c2nc3c(s2)CCc2onc(-c4ccc(OC)cc4)c2-3)cc1
→ i, -0.31
CC(=O)Nc1cn(C(C)=O)c(C)n1
→ i, 0.96
O=C(NCc1ccccc1)C(c1ccccc1)N(Cc1cccs1)C(=O)c1cnccn1 (stereo unspecified)
→ i, -2.8
Oc1ccc(N=Nc2ccccc2C(F)(F)F)c2cccnc12
→ i, -0.28
O=C(c1cccc(C(F)(F)F)c1)N1CCC(=O)N(C(CO)Cc2ccccc2)CC1 (stereo unspecified)
→ i, 0.65
Cc1cccc(CSc2ccc(-c3ccco3)nn2)c1
→ i, 1.1
CCn1c(/C=C/c2cc[n+](C)cc2)nc2ccccc21
→ i, 3.3
CCOC(=O)c1c(C)[nH]c(C(=O)CSc2nnc(CC(C)c3ccccc3)o2)c1C (stereo unspecified)
→ i, 0.31
COc1ccc(-n2nc(C)cc2N)cc1
→ i, -0.34
COC(=O)c1cc(=O)n(CCc2ccc(OC)c(OC)c2)c(=Nc2ccc(F)c(Cl)c2)s1
→ i, 0.66
CCC(=O)Nc1ccc(-c2nn3c(C)nnc3s2)cc1C
→ i, 0.44
CC1CN(C(=O)COC(=O)c2cc([N+](=O)[O-])ccc2Cl)CC(C)O1 (stereo unspecified)
→ i, -2.4
COc1ccc(OC)c(NC(=O)CCN2CCN(c3ccccc3OC)CC2)c1
→ i, -0.14
Cc1nn(-c2nc3ccccc3n2Cc2ccccc2)c2c1C(=O)CC(C)(C)C2
→ i, 0.5
COc1ccc(C(=O)NCC2(c3ccccc3)CCCC2)c(OC)c1
→ i, -1.2
C/C(=N\Nc1nc2ccccc2[nH]1)c1ccc2c(c1)OCCO2
→ i, -0.38
CCOC(=O)c1cc(-c2ccco2)nc2c1c(C)nn2-c1ccccc1
→ -6*, 0.14*
Cc1ccc(N(CC(O)CN(C)C)S(=O)(=O)c2ccccc2)cc1 (stereo unspecified)
→ i, 0.33
OCC1(Cc2ccccc2C(F)(F)F)CCN(Cc2ccncc2)CC1
→ i, -1.4
O=C(NCc1ccc2c(c1)OCO2)c1ccc(Cl)c(S(=O)(=O)NCc2ccccc2)c1
→ i, -1.1
O=C([C@H](Cc1ccccc1)NS(=O)(=O)c1ccc(Cl)cc1)N1CC[C@@]2(O)CCCC[C@H]2C1
→ i, 0.87
COc1ccccc1CN1CC(C(=O)N2CCN(c3ccc(F)cc3)CC2)CC1=O (stereo unspecified)
→ i, -1.7
CC(C)Oc1ccc(CNC(=S)N/N=C/c2cccnc2)cc1
→ i, -0.08
COc1cc(OC)c(OC)cc1CN1CCN(Cc2cccn2C)CC1
→ i, -1.4
Cc1cc(C)c(C(=O)NC2CCCc3c2cnn3-c2ccc(C)c(C)c2)c(=O)[nH]1 (stereo unspecified)
→ i, -0.26
O=C(CNS(=O)(=O)c1ccccc1)OCC(=O)c1cccc([N+](=O)[O-])c1
→ i, 0.37
O=C(Cn1nnc2ccccc21)NNC(=O)c1ccccc1
→ i, -2.2
O=C(CCc1nnc(CCc2ccccc2)o1)N1CCCCC1CCn1cccn1 (stereo unspecified)
→ i, 2.1
COc1cccc(C(=O)CN2CCC(NC(=O)NC3CCCCC3)CC2)c1
→ i, -0.32
CCNC(=S)NNC(=O)c1cccn(Cc2ccc(Cl)cc2Cl)c1=O
→ i, 0.29
O=C(CNc1cccc(S(=O)(=O)N2CCOCC2)c1)N1CCc2ccccc21
→ i, -0.37
CCCN1CCN(C(=O)c2cn(CC(C)C)c(=O)c3cc(OC)c(OC)cc23)CC1
→ i, -0.17
CCN(CC)CCn1c(=S)[nH]c2ncccc2c1=O
→ i, 0.38
CNc1cc(F)nc(F)n1
→ i, -2.5
Cc1cccc(NC(=S)N2CCN(C(=O)c3ccco3)CC2)c1
→ i, 0.71
CC1Cc2ccccc2N1S(=O)(=O)c1cccc(C(=O)NCCCn2ccnc2)c1 (stereo unspecified)
→ i, 0.43
CCOC(=O)C1CCCN(S(=O)(=O)c2cc3c4c(c2)CCC(=O)N4CCC3)C1 (stereo unspecified)
→ i, 0.26
O=C(NCc1ccccc1)C1CCCN1S(=O)(=O)c1ccc(Cl)cc1 (stereo unspecified)
→ i, 0.35

# Single records, from the list above:
# COc1cc(OC)c(OC)cc1CN1CCN(Cc2cccn2C)CC1 is entered as KCNQ2 inh = i; KCNQ2 inh baseline = -1.4
# CCOC(=O)c1c(C)[nH]c(C(=O)CSc2nnc(CC(C)c3ccccc3)o2)c1C (stereo unspecified) is entered as KCNQ2 inh = i; KCNQ2 inh baseline = 0.31
# O=C(NCc1ccccc1)C1CCCN1S(=O)(=O)c1ccc(Cl)cc1 (stereo unspecified) is entered as KCNQ2 inh = i; KCNQ2 inh baseline = 0.35

# Next section
# Under each structure – KCNQ2 inh, KCNQ2 inh baseline
NC(=O)c1sc2nc(-c3ccccc3)c3c(c2c1N)CCCC3
→ i, -0.72
CCOC(=O)C1=C(C)NC(SCC(=O)Nc2cc(C)on2)=C(C#N)C1c1cccs1 (stereo unspecified)
→ i, -1.1
Cc1cnc(C(=O)Nc2ccc3c(c2)CCC3)cn1
→ i, 0.38
Cc1cccc(CNC(=O)c2ccc3c(c2)N(C)CCS3)c1
→ i, 1.4
O=C1Nc2ccccc2C1=Nc1ccc(F)cc1
→ i, 1.3
COc1cccc(C(=O)N2CCN=C2SCc2cccnc2)c1OC
→ i, -0.77
O=C(CNC(=O)c1ccco1)N/N=C/c1cc(Br)ccc1O
→ i, -0.56
Cc1cccc(NC(=O)CN2C(=O)CCSc3ccc(S(=O)(=O)N4CCOCC4)cc32)c1C
→ i, 0.2
CCC(C)(C(=O)Nc1ccc(OC)cc1)N(C)C(=O)Cn1nnnc1N (stereo unspecified)
→ i, -1.8
CNC(=O)/C=C/c1cccc(C(F)(F)F)c1
→ i, 0.28
Cn1nnc(NC(=S)NC(=O)/C=C/c2ccco2)n1
→ i, -1.3
Cc1ccc(SC(C)c2nc(-c3cccnc3)no2)cc1 (stereo unspecified)
→ i, -0.05
C=CCOc1ccc(CNCC2CCCO2)cc1 (stereo unspecified)
→ i, -0.05
CCCCn1c(=N)n(CC(O)COc2ccc(C)cc2)c2ccccc21 (stereo unspecified)
→ i, -2.2
CC(C)Cn1cc(C(=O)NCCCN2CCCC2=O)c2c3ccccc3n(C)c2c1=O
→ i, 0.92
Cn1c(=O)c2c(nc(N3CCCCCC3)n2CC(=O)c2ccccc2)n(C)c1=O
→ i, 0.03
Cc1ccc(C(=O)Oc2ccccc2N2C(=O)C3C4CCC(C4)C3C2=O)cc1 (stereo unspecified)
→ i, -0.54
Cc1ccc(C(=O)NCC(=O)OC(C)C(=O)NC2CCCc3ccccc32)cc1 (stereo unspecified)
→ i, 0.34
Cc1ccc(-c2c(C(=O)N/N=C/c3cccs3)nnn2-c2nonc2N)cc1
→ i, 1.5
O=C(NC(Cc1ccccc1)C(=O)N1CCCCC1)c1ccccc1 (stereo unspecified)
→ i, 1
O=C(Nc1ccccc1Cl)OCc1cncs1
→ i, 2.7
COc1ccc(-c2cc(C(=O)NNC(=S)NC(=O)c3c(-c4ccccc4)noc3C)[nH]n2)cc1
→ i, -0.71
O=C(CN(C1CCCCC1)S(=O)(=O)c1ccccc1)N1CCCC1
→ i, 0.69
CCOc1nc(-c2ccccc2O)nc2ccccc12
→ i, 0.63
CN1CCN(S(=O)(=O)c2ccc(NC(=S)NC(=O)C3CCCC3)cc2)CC1
→ i, -1.9
CCC(C(=O)NC1CCCC1)N(C(=O)Cn1nnc(-c2ccc(C)o2)n1)c1cccc(OC)c1 (stereo unspecified)
→ i, -0.86
CCOc1cc2[nH]c(=O)n(CCC(=O)NCCc3ccccc3)c(=O)c2cc1OCC
→ i, 1.5
CCOC(=O)CC1C(=O)NCCN1c1nc2ccc(C)cn2c(=O)c1/C=C1\SC(=S)N(CC(C)C)C1=O (stereo unspecified)
→ i, 11
O=[N+]([O-])c1cc(S(=O)(=O)N2CCCC2)ccc1N/N=C1/CCCc2ccccc21
→ i, 2.1
COc1ccc(-c2ccc(=O)n(Cc3ccccc3)n2)cc1
→ i, -0.4
CN(C)CCCN(C(=O)c1ccc(S(=O)(=O)N(C)C2CCCCC2)cc1)c1nc2ccc(F)cc2s1
→ i, 0.41
Cc1cc(C)cc(N(C(=O)C2CCCC2)C2C=CS(=O)(=O)C2)c1 (stereo unspecified)
→ i, 2.1
CSc1nnc(-c2ccc(O)cc2)n1C
→ i, -1.1
CCOC(=O)Cn1c(=O)oc2cc(S(=O)(=O)N3CCN(c4ccccn4)CC3)ccc21
→ i, 0.46
O=Cc1ccc(-c2ccccc2C(=O)O)o1
→ i, -0.61
O=C(NCCCN1CCOCC1)c1cc(-c2ccc(Br)cc2)nc2ccccc12
→ -6.8*, 0.38*
COc1cc2nc(Nc3ccc(C)c(Cl)c3)nc(N)c2cc1OC
→ i, -1.6
O=C(COC(=O)CNS(=O)(=O)c1ccc(Br)cc1Cl)NCCc1ccccc1
→ i, -3.4
O=[N+]([O-])c1ccc(NCCCNS(=O)(=O)c2ccccc2)cc1
→ i, -0.06
O=C(O/N=C/c1ccc(Cl)cc1)C1CCCCC1
→ i, -0.11

# The list goes on.
canonical_smiles	KCNQ2 inh	KCNQ2 inh baseline
CN1C(=O)CSC1=S	i	-0.22
O=C(CCN1C(=O)/C(=C/c2ccccc2F)SC1=S)Nc1ccccn1	i	0.67
COc1ccccc1C(=O)NCCn1cc(SCC(=O)NCc2ccco2)c2ccccc21	i	-0.28
O=C(c1cc(COc2ccc(F)cc2Cl)on1)N1CCCC(OCc2cccnc2)C1 (stereo unspecified)	i	0.19
CCOC(=O)C(=O)N(Nc1ccccc1C)c1ccccc1C	i	1.3
Cc1nnc2sc(SCC(=O)Nc3ccc(Cl)cc3)nn2c1=O	i	-1.1
CSc1ccccc1NC(=O)c1ccc(C)o1	i	-1.1
O=C(C[n+]1ccc(/C=C/c2ccccc2)cc1)c1ccc2c(c1)OCCO2	i	-0.01
Cc1ccc(S[C@@H](CCN2CC[C@H](C)CCC2=O)c2ccccc2)cc1	i	-0.46
CC(=O)N/C(=C/c1ccc(OS(=O)(=O)c2ccc(C)cc2)cc1)C(=O)NCCO	i	0.36
CC1CCN(S(=O)(=O)N2CCCC(C(=O)NCc3ccccc3Cl)C2)CC1 (stereo unspecified)	i	-0.69
CCn1c2ccccc2c2cc(/C=N/NC(=O)c3ccc(O)cc3)ccc21	i	-2.2
O=S(=O)(c1ccc(Br)cc1)n1ccc2ccccc21	i	-2.4
CCN(CC)CC(C(=O)N(CC)CC)P(=O)(c1ccccc1)c1ccccc1 (stereo unspecified)	i	-0.9
Cc1ccc(C)c(NC(=O)CCC(=O)N2CCOc3ccccc32)c1	i	1.6
Cc1ccc(-n2nc3c(c2NC(=O)c2cccs2)CSC3)cc1	i	-1
Cc1ccc(N2C(=O)N(CC(=O)Nc3ccc(C)c(C)c3)C(=O)C2C)cc1 (stereo unspecified)	i	1.6
CC1CCN(S(=O)(=O)c2ccc(N=NC3=C(O)CC(C)(C)CC3=O)cc2)CC1	i	2.7
O=S(=O)(c1ccccc1)c1cnn2c(C(F)(F)F)cc(-c3ccc(F)cc3)nc12	i	-0.01
CC1CN(C(=O)COC(=O)COc2ccc(C#N)cc2)CC(C)O1 (stereo unspecified)	i	0.6

# Reformatted: entries from further up.
SMILES: COc1ccc(OC)c(NC(=O)CCN2CCN(c3ccccc3OC)CC2)c1
- KCNQ2 inh = i
- KCNQ2 inh baseline = -0.14
SMILES: Cc1nn(-c2nc3ccccc3n2Cc2ccccc2)c2c1C(=O)CC(C)(C)C2
- KCNQ2 inh = i
- KCNQ2 inh baseline = 0.5
SMILES: COc1ccc(C(=O)NCC2(c3ccccc3)CCCC2)c(OC)c1
- KCNQ2 inh = i
- KCNQ2 inh baseline = -1.2

# Next structures follow:
canonical_smiles	KCNQ2 inh	KCNQ2 inh baseline
Cn1cccc1-c1cc(C(=O)O)[nH]n1	i	-0.1
CC12CCC(C(=O)N(NC(=O)c3ccccc3O)C1=O)C2(C)C (stereo unspecified)	i	0.25
COc1ccc(NS(=O)(=O)/C=C/c2ccc(OC)c(OC)c2)cc1	i	2.2
COc1ccc(-c2noc(N3CCC(C(=O)Nc4ccc(OC)c(OC)c4)CC3)n2)cc1	i	-0.74
CCN(CC(=O)Nc1ccc(NC(C)=O)cc1)C(=O)c1cc(CN2C(=O)c3ccccc3C2=O)ccc1OC	i	-2.2
COc1ccc(CCN(Cc2cc3cccc(C)c3n3nnnc23)C(=O)c2ccncc2)cc1OC	i	-0.96
O=C(Nc1ccc2c(c1)C(=O)N(CC1CCCO1)C2=O)c1ccccc1Br (stereo unspecified)	i	0.86
CCCn1nc(C(=O)Nc2ccc(S(=O)(=O)Nc3ncccn3)cc2)c2ccccc2c1=O	i	-0.21
NS(=O)(=O)c1ccc(CCNC(=O)c2ccc([N+](=O)[O-])cc2[N+](=O)[O-])cc1	i	0.43
COc1ccc(/C=C/C(=O)NCC(=O)N/N=C/c2cc(Br)ccc2OCc2ccccc2)cc1	i	-1.9
Cc1cc(-c2nnc(CCC(=O)NCC(C)c3ccccc3)o2)no1 (stereo unspecified)	i	0.71
COc1ccc2c(c1)cc(C(=O)O)n2C	i	0.58
Cc1cccc(NC(=O)C2CCCN2C(=O)OCC(C)C)c1C (stereo unspecified)	i	1.7
CCN(c1ccc(NC(=O)COC(=O)CCc2cc(OC)c(OC)c(OC)c2)cc1)C(C)C	i	-2.8
NC(=O)c1cc2ccccc2o/c1=N/NC(=O)c1cccc(Cl)c1	i	-1.1
CCOc1ccc(OCCC(=O)N(CCC(C)C)c2c(N)n(Cc3ccccc3)c(=O)[nH]c2=O)cc1	i	-3.1
C=CCc1c(C)c(C#N)c2nc3ccccc3n2c1N1CCCCC1	i	4.1
Cc1cc(C)cc(NC(=O)NCc2c(-c3ccccc3)noc2C)c1	i	-1.3
